Mtb H37Rv: M. tuberculosis H37Rv growth inhibitors, H37Rv strain (AID 1626); M. tuberculosis H37Rv growth inhibition; higher % means a stronger effect; inhibition, % at 10 µM; hits with a dose series show IC50 in µM; hit rate 0.95% among 220,000;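 active = confirmed in a dose series; inconclusive = inhibition above 80% but not taken into the dose series; inactive = below 80% or under 30% at every dose of the series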;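 also: bacteria incubated seven days before Alamar blue readout; 0% = bacteria only wells and 100% = bacteria with antibiotic wells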
RecA intein inh: inhibitors of M. tuberculosis RecA intein splicing. P9WHJ3. cell-free RecA intein splicing, fluorescence. inhibition, %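 (about 9 µM by stock and volumes)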. hit rate 0.75% among 290,000. AID 2221; in the data active = inhibition above about 30%; inconclusive = no clear call, values can overlap the other calls;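 also: 0% = vehicle wells and 100% = reference inhibitor control wells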
Target sequence (P9WHJ3 whole entry, looked up): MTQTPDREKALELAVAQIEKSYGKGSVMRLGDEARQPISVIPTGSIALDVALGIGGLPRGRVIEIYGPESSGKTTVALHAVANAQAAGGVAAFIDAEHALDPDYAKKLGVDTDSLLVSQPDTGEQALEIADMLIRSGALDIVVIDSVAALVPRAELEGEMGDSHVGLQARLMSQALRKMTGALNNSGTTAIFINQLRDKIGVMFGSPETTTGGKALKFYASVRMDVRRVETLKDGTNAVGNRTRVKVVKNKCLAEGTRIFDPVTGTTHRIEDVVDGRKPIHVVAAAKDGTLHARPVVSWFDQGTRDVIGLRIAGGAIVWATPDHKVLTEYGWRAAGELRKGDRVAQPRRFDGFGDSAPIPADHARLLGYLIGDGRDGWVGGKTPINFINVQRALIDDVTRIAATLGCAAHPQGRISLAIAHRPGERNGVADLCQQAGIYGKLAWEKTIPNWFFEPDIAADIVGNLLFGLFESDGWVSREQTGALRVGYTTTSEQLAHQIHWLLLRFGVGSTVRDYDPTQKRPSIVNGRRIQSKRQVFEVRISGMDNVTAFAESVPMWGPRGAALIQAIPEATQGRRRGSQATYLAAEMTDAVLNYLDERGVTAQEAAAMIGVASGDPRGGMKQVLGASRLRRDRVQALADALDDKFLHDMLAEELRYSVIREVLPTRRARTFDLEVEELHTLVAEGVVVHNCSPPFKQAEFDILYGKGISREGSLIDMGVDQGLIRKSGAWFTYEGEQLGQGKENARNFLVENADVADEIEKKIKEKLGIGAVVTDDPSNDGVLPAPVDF
Mtb bLac sens: beta-lactam sensitization of Mtb H37Rv | M. tuberculosis H37Rv growth with meropenem, percent inhibition; hits of this screen are not shown here | inhibition, % at 25 µM | hit rate 0.27% among 330,000 | AID 434955;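 active = about 74% or more and at least 40 points above the plate without the antibiotic, then above 30% in a dose series; inconclusive = first-round hits that could not be retested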;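 also: growth measured after seven days incubation then overnight dye step; 0% = bacteria only wells and 100% = bacteria with antibiotic; twin plates without the antibiotic show which effects depend on it; some results filed as inactive read as strong as hits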
YopH inh: blocks Yersinia enterocolitica YopH tyrosine phosphatase | fluorescence Ex485/Em525 | inhibition, %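 (about 10 µM by stock and volumes)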 | hit rate 0.16% among 140,000 | AID 898;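 active = inhibition of 50% or more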;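 also: controls were vehicle for no effect and minimum signal wells for full effect; inactives centre near -20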
Arbovirus anti: arbovirus infection inhibition | arbovirus infection cell-based antiviral screen | inhibition, % at 10 µM | hit rate 0.37% among 200,000;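 active = inhibition from about 30%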;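 also: bluetongue infection of BSR cells; cell survival read as ATP light after 72 h; 0% = infected wells without compound and 100% = uninfected wells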
Arbovirus anti repeat: recorded beside Arbovirus anti, whose call it bears; inhibition, %; measured here: 10K subset replicate screen; many hits read low in the repeat;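 first of two repeat runs on a subset; 0% = infected and 100% = uninfected wells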
An asterisk follows results filed as active; ? = inconclusive; . = not tested or not shown. Not all compounds are listed. The share of hits here may be higher or lower than overall.

SMILES	Mtb H37Rv	RecA intein inh	Mtb bLac sens	YopH inh	Arbovirus anti	others
FC(F)(F)c1cccc(NCc2cn3cccnc3n2)c1	.	-3.1	-3	-14	-3
COc1ccc(CNC(=O)C2=CC(c3ccc(C)cc3)=NS(=O)(=O)N2C)cc1	.	5.8	-5	.	.
CCCCn1c(N)c(N(Cc2ccccc2OC)C(=O)CC2OC(=O)c3ccccc32)c(=O)[nH]c1=O (stereo not drawn)	.	-1.3	-10	.	.
Cc1ccc(C(=O)Nc2ccccc2C(N)=O)o1	-6%	3.0	-7	-31	3
COc1ccc(C(C#N)c2ccc(=O)[nH]n2)cc1 (stereo not drawn)	-2%	1.0	1	.	-3
CCOC(=O)CSCC(=O)Nc1cc(C)ccc1C	-3%	1.2	-12	-2	9
O=C(N/N=C/c1c[nH]c2ccccc12)c1cccc(Cl)c1	.	0.7	-7	.	.
CCCCc1n[nH]c(=S)n1Cc1ccc(Cl)cc1	-4%	0.9	-4	.	20
O=S(=O)(c1ccc(F)c(F)c1F)N1CCN(C(=S)NCc2ccccc2)CC1	1%	2.1	-6	.	12
COc1ccccc1-n1c(=O)c(C#N)c(-c2ccc([N+](=O)[O-])cc2)c2cc(C(=O)c3cc(F)ccc3O)cnc21	8%	4.4	2	.	10
CN(C)c1ccc(CNCCC(Cc2ccccc2)c2ccco2)cc1 (stereo not drawn)	10%	3.0	55	.	.
COc1ccc(NC(=O)c2cncc(Br)c2)cc1S(=O)(=O)N1CCCCC1	3%	2.6	6	-20	2
COc1ccccc1COC(=O)Nc1c(C)nn(C)c1Cl	-1%	1.2	-3	-49	3
COCCNC(=S)Nc1ccc2nsnc2c1	-1%	2.6	8	-19	3
CCC(=O)Nc1ccc2c(c1)ncn2CCc1ccccc1	.	1.3	-3	.	.
CCN(CC)c1ccc(N=CN2CCOCC2)cc1	.	-1.7	-10	.	.
Cc1cc(C)cc(-n2ncc3c2CCCC3NC(=O)c2cc(C)n(C)n2)c1 (stereo not drawn)	.	0.4	-6	.	.
C=CCSc1nnc(-c2c[nH]c3ccccc23)n1CCOC	-2%	2.6	-6	-39	3
c1ccc(CNc2cncnc2)cc1	.	-2.2	-1	.	.
O=C(COc1ccc(Cl)cc1)NCc1nnc(SCC(=O)Nc2ccccc2F)o1	2%	4.4	0	.	3
O=C(Nc1ccc(Cl)cc1)[C@@H]1[C@@H]2C(=O)N(c3ccc4ccccc4c3)C(=O)[C@@H]2[C@H]2C=CC=NN21	15%	6.1	-1	-16	7
CC1C(c2ccccc2)N(C)C(c2ccccc2)C(C)C1(O)C#Cc1ccccc1 (stereo not drawn)	21%	.	59	-19	-44
CC1CC(=O)Nc2ccccc2N1S(=O)(=O)c1cccc(Cl)c1 (stereo not drawn)	-1%	1.1	0	-20	-3
O=C(CN1CCCN(Cc2ccc(F)cc2Cl)C1=O)NC1CCCCCCC1	1%	.	-2	-9	1
CCCOc1cccc(C2/C(=C(/O)c3ccccc3)C(=O)C(=O)N2CCN(C)C)c1 (stereo not drawn)	.	0.6	.	-16	-1
Cc1cnc(C(=O)Nc2ccccc2-c2nnn(CC(=O)NC3CCCC3)n2)cn1	-11%	-0.8	7	-11	-1
C=CCOc1ccc(C(=O)Nc2ccc3c(c2)n(C)c(=O)n3C)cc1	.	-0.7	-2	.	.
CCC(C)N1C(=O)c2ccccc2C1C(=O)NC1CCCCCC1 (stereo not drawn)	-5%	-2.2	-2	-37	9
CC(=O)Nc1nnc(S(N)(=O)=O)s1	-7%	-1.1	-2	-33	8
COc1c(Br)cc2c(C)c(C(=O)N3CCOCC3)oc2c1Br	8%	.	20	-18	-8
O=C(CSc1nn(-c2ccc(F)cc2)c(=S)s1)NCC1CCCO1 (stereo not drawn)	76%	0.7	92	.	-3
O=S(=O)(Nc1ccc(Cl)cc1)c1cccc2cccnc12	.	2.3	4	.	.
O=C(Nc1cccc(F)c1)Nc1ccc(Cl)cn1	.	12	10	.	.
COc1ccc([C@H]2/C=C\CN(C(=O)C3CCCC3)[C@@H](C)C(=O)N2Cc2ccc(F)cc2)cc1	9%	5.2	-10	.	.
Nc1cc([N+](=O)[O-])ccc1O	4%	-1.4	-1	-23	3
CC(NC(=O)CN1CCc2ccccc21)c1ccccc1 (stereo not drawn)	-2%	-2.5	-5	-7	-5
CN(C)S(=O)(=O)c1ccc2oc(SCC(N)=O)nc2c1	-17%	-1.2	-8	4	13
Cc1ccc2[nH]c3c(=O)n(Cc4ccco4)cnc3c2c1	-2%	-3.2	0	.	.
O=C(NCCc1cscn1)C1CCC(=O)N(Cc2ccc(Cl)cc2)C1 (stereo not drawn)	.	0.2	6	.	.
O=C(NN=C1CCCC1)c1ccc([N+](=O)[O-])cc1	2%	-1.4	6	.	0
Cc1ccccc1NC(=O)Cc1nc(COC(=O)c2ccccn2)cs1	.	-0.8	3	.	.
Cc1cccc(N2CCN(C(=O)c3cccc(NC4=NC5CS(=O)(=O)CC5S4)c3)CC2)c1C (stereo not drawn)	.	-3.1	-5	.	.
C=CCn1c(COc2ccccc2F)nnc1SCC(=O)Nc1cc(C)on1	3%	3.2	4	.	5
CCCOc1ccc(Cc2c(O)nc(SC)[nH]c2=O)cc1	.	-4.5	-10	.	.
COc1ccccc1NC(=O)C1=C(C)Nc2nnnn2C1c1ccncc1 (stereo not drawn)	-4%	39*	-6	-13	2
O=C(N/N=C/c1cc(Br)cs1)C(O)c1ccccc1 (stereo not drawn)	.	-0.4	-3	.	.
C/C=C/c1ccc(OCC(=O)Nc2cc(S(=O)(=O)N3CCOCC3)ccc2N2CCCC2)c(OC)c1	.	7.5	0	.	.
O=[N+]([O-])c1ccc(/C=N/Nc2ncc(-c3ccccc3)cn2)cc1	1%	-4.4	.	.	0
CCSc1nnc(NC(=O)C2C3CCC(C3)C2C(=O)O)s1 (stereo not drawn)	-2%	-2.7	-4	.	4
COc1ccc(Nc2ncnc3ccc(Br)cc23)cc1OC	.	2.3	3	.	.
Cc1ccc(CNC(=O)c2cc3c(=O)n4ccccc4nc3n(CC3CCCO3)c2=N)cc1 (stereo not drawn)	4%	-1.1	-1	-23	2
CC(=O)C1=C(C)N(Cc2ccccc2)C(=O)N[C@H]1c1ccco1	-5%	-0.8	5	.	.
Cc1ccccc1NC(=S)N(C)Cc1cn(C)c2ccccc12	3%	-0.2	-1	-36	-1
Cn1cc(-c2ccc(Cl)cc2)cc(C#N)c1=O	7%	-3.6	-3	.	3
COC(=O)C(C)N(c1ccc(C)cc1)S(=O)(=O)c1c(C)[nH]c(=O)[nH]c1=O (stereo not drawn)	-3%	0.1	2	-17	-1
COc1ccc(-n2c(=O)c3c4c(sc3n(CC(N)=O)c2=O)CCCCC4)cc1	-2%	0.5	1	.	.
O=S(=O)(Nc1ccc(O)c2ccccc12)c1cccs1	.	1.0	12	.	.
CCOc1ccc(Cl)cc1CNCCCSc1nc(C)cc(C)n1	.	1.5	-14	.	.
COc1ccc(NC(=O)CN2CCC(NC(=O)c3ccc(OC)cc3)CC2)cc1	.	0.0	3	.	.
COc1ccc(Oc2cccc(Cl)c2CNC(=O)CC(C)(C)CC(=O)O)cc1	-10%	.	-1	.	.
More records
SMILES	Mtb H37Rv	RecA intein inh	Mtb bLac sens	YopH inh	Arbovirus anti	others
O=C(CNCC1CCCCC1)Nc1cccc(S(=O)(=O)N2CCOCC2)c1	2%	10	-2	.	5
Cc1ccc(C(=O)CSc2nnc3c4ccccc4nc(C(C)(C)C)n23)cc1	11%	5.2	2	-20	-7
CCC(=O)/C=C1\Sc2ccc(OC)cc2N1CC	-6%	-6.5	?	-41	-4
Cc1cc(C(=O)NNC(=S)Nc2ccccc2C)cs1	7%	-1.4	8	-17	10
COc1ccc(N(CC(=O)NC2CCCCC2)C(=O)CNC(=O)c2ccco2)cc1OC	-4%	-1.2	-5	-11	1
OCCCn1c(CCCNc2nc(-c3cccc(Br)c3)cs2)nc2cc(Cl)c(N3CCCCC3)cc21	.	2.3	5	.	.
Cc1cccc(-n2c(C)cc(C=C(C#N)C#N)c2C)c1	1%	0.6	1	-22	0
COc1ccc(C(c2nnnn2C(C)(C)C)N2CCN(c3nc4ccccc4s3)CC2)cc1OC (stereo not drawn)	15%	6.1	.	-21	1
O=C1N(CCCN2C(=O)C3(OCCO3)c3ccccc32)c2ccccc2C12OCCO2	-5%	0.7	0	-56	6
Cc1cc2nc(CCN(C(=S)NCC3CCCO3)C3CCCC3)[nH]c2cc1C (stereo not drawn)	-9%	-2.3	3	.	-9
O=C(c1ccccc1F)N1CCC(O)(c2cccnc2)CC1	-9%	-0.3	-3	-27	-11
COc1ccccc1N1CCN(c2nc(C)cc(=O)[nH]2)CC1	.	-1.1	-7	.	.
CCOc1ccc(CN(C(=O)c2cc(=O)c3cc(C)cc(C)c3o2)C2CCS(=O)(=O)C2)cc1 (stereo not drawn)	.	-1.5	0	.	.
CC(=O)c1coc2c1cc(O)c1ccccc12	-8%	3.8	?	0	-6
Cc1ccc(CN2CCN(Cc3cn[nH]c3-c3ccccc3)CC2CCO)o1 (stereo not drawn)	-6%	0.5	-1	.	2
COC(=O)Nc1ccc(S(=O)(=O)N2CCCCC2C(=O)NCc2ccco2)cc1 (stereo not drawn)	-7%	-0.6	-4	-13	2
Cc1sc2ncnc(NC(C)C(=O)O)c2c1C (stereo not drawn)	-8%	-0.1	2	.	1
CCC(=O)OCCNc1cc(Sc2nc3ccccc3s2)c2nonc2c1[N+](=O)[O-]	?	50*	97	-24	-46
Cc1cc2ccccc2nc1SCC(=O)NC1CCCC1	-6%	7.6	54	.	-8
CCN(CCCNS(=O)(=O)c1ccc2c(c1)CCN2C(C)=O)c1cccc(C)c1	6%	-1.9	10	-5	5	Arbovirus anti repeat=7

Taken from the listing, 7 compounds:
SMILES	Mtb H37Rv	RecA intein inh	Mtb bLac sens	YopH inh	Arbovirus anti	others
Cc1cc(C(=O)NNC(=S)Nc2ccccc2C)cs1	7%	-1.4	8	-17	10
COc1ccc(N(CC(=O)NC2CCCCC2)C(=O)CNC(=O)c2ccco2)cc1OC	-4%	-1.2	-5	-11	1
OCCCn1c(CCCNc2nc(-c3cccc(Br)c3)cs2)nc2cc(Cl)c(N3CCCCC3)cc21	.	2.3	5	.	.
Cc1cccc(-n2c(C)cc(C=C(C#N)C#N)c2C)c1	1%	0.6	1	-22	0
COc1ccc(C(c2nnnn2C(C)(C)C)N2CCN(c3nc4ccccc4s3)CC2)cc1OC (stereo not drawn)	15%	6.1	.	-21	1
O=C1N(CCCN2C(=O)C3(OCCO3)c3ccccc32)c2ccccc2C12OCCO2	-5%	0.7	0	-56	6
Cc1cc2nc(CCN(C(=S)NCC3CCCO3)C3CCCC3)[nH]c2cc1C (stereo not drawn)	-9%	-2.3	3	.	-9

Following part
SMILES	Mtb H37Rv	RecA intein inh	Mtb bLac sens	YopH inh	Arbovirus anti	others
Cc1cccn2c(=O)c3cc(C(=O)NC4CCCC4)c(=N)n(CCc4ccccc4)c3nc12	.	0.8	89	.	.
CCCC(=O)n1nc(-c2ccc(Cl)cc2)nc1SC	.	13	76	22	3
Oc1ccccc1CN1CCCC(N2CCc3ccccc3C2)C1 (stereo not drawn)	.	0.7	-6	.	.
Nc1nc(Nc2cccc(F)c2)nc(NCCO)c1[N+](=O)[O-]	7%	.	15	.	.
CC(=NC(C)C)C1=C(O)C(C)OC1=O (stereo not drawn)	2%	0.7	2	-32	-1
CN(Cc1ccccc1)C(=O)CCS(=O)(=O)c1ccc2c(c1)oc(=O)n2C	.	-1.2	1	.	.
Cc1coc2cc3oc(=O)c(CCC(=O)NCC(=O)O)c(C)c3cc12	.	-4.5	-1	.	.
COc1ccc(N(C)S(=O)(=O)c2ccc3c(c2)CC(C)N3C(=O)C2CC2)c(OC)c1 (stereo not drawn)	.	0.2	-2	.	.
COc1cc(-n2c(N)c(C(=O)NCc3ccco3)c3nc4ccccc4nc32)cc(OC)c1OC	9%	.	-3	-24	-7
CCOc1ccc(/C=N/NC(=O)c2cc3c(OC)cc(OC)c(OC)c3[nH]2)cc1	.	27	0	.	.
COc1ccc(OC)c(NC(=O)NC2CCCc3ccccc32)c1 (stereo not drawn)	.	-1.3	-10	.	.
CCCc1[nH]n(-c2ccc(F)cc2)c(=O)c1C=NCC1CCCO1 (stereo not drawn)	.	-1.0	1	.	0
COC(=O)c1ccccc1NC(=O)CSc1ccc(C)cc1	-4%	7.3	16	-5	11
O=C(O)c1cnn(-c2nc(-c3cccc([N+](=O)[O-])c3)cs2)c1C(F)(F)F	.	1.2	4	.	.
Cc1nnc(NC(=O)CSc2nnnn2Cc2ccccc2)s1	-1%	2.2	1	-41	5
CCOC(=O)Cc1csc(NC(=O)c2ccc(Cl)s2)n1	.	3.0	66	.	.
CCOC(=O)C1=C(CN2CCc3ccccc32)NC(=O)NC1c1ccc(Cl)cc1 (stereo not drawn)	6%	2.8	0	-26	-26

Bioassay records (PubChem BioAssay)
